High-throughput results: PubChem, several laboratories
ALR H2O2 inh: inhibitors of human sulfhydryl oxidase ALR | AID 485317 | inhibition, % (concentration not given with the values) | 290,000 compounds, 3.8% hits | purified ALR, DTT oxidation, H2O2 HRP-luminol luminescence;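 active = mean and each replicate at 75% or more; inconclusive = only one of the two met; inactive = neither met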;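 note: stock transfer was 7.5 nL into about 7.5 µL; 0% = neutral wells and 100% = wells with inactivated enzyme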
Target sequence (P55789 whole entry, looked up): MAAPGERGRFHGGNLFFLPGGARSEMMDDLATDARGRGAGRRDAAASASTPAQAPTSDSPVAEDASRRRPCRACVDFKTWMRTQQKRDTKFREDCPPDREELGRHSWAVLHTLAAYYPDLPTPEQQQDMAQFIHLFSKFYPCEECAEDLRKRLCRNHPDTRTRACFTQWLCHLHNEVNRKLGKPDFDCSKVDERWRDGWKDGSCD
E coli growth: E. coli growth inhibition; Escherichia coli growth, OD600, 23 h; hits give low values; OD600 absorbance (test concentration not listed); 330,000 compounds, 0.21% hits;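 active = OD600 absorbance below the run mean of sample wells minus 3.6 SD, in any replicate, cut at about 0.56 in these data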;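 note: stock transfer was 300 nL into about 60 µL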
HNF4A DNA FP: change in binding of human HNF4 alpha to DNA; HNF4a-FITC DNA binding, fluorescence polarization, 1 h; activity change, % at 10 µM; 360,000 compounds, 0.3% hits; P41235; in the data active = activity change above about 30%, passing the limit was not always enough;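 note: controls were the assay level and a saturating level of protein; the project sought stronger binding though the title names inhibitors; some compounds called inactive have numbers as strong as hits; positive values seem to mean higher polarization but the record does not say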
Target sequence (P41235 whole entry, looked up): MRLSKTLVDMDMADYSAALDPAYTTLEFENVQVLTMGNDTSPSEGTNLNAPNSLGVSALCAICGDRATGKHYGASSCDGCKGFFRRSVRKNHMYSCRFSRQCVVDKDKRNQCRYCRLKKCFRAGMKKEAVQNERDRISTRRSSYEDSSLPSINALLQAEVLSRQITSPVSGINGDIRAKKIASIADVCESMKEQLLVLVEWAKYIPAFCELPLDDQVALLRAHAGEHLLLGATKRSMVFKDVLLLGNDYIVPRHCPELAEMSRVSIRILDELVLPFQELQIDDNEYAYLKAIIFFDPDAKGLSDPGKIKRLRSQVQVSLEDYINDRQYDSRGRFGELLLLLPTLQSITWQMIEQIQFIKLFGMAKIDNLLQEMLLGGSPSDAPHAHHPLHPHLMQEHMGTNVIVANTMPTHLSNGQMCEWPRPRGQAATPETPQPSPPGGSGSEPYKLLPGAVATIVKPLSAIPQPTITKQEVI
rRNA inh HTS: inhibitors of bacterial rRNA selective over humanized ribosomes. GFP signal change (wild-type ribosome), % (test concentration not listed). E. coli WT GFP vs humanized-ribosome RFP mutants, fluorescence, 24 h; hits give low values; DMSO median 0, no signal -100. AID 720706. 350,000 compounds, 1.6% hits;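 active = significant combined selectivity score with lowered wild-type GFP, culture density cut under 30%, mutant RFP and density less affected; inactive = any of these conditions unmet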; note: one replicate is shown; some compounds called inactive have numbers as strong as hits
FGF22 binding: shifts melting point of recombinant human FGF22 | recombinant FGF22 thermal shift, SYPRO orange fluorescence; percent of sucrose octasulfate shift, DMSO zero | calls only at 9.99 µM | 340,000 compounds, 1.5% hits | AID 651658;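 active = melting point raised past a set limit in the mean and every replicate; inconclusive = no clear call; three in four hits are not shown here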
Target sequence (Q9HCT0 whole entry, looked up): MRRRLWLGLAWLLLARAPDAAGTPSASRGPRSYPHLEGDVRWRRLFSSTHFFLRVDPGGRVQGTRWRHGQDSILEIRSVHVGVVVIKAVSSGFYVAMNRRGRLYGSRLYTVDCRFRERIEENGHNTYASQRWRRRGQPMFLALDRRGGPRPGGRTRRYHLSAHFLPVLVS
Vif TR-FRET: HIV-1 Vif–A3G interaction blockers – biochemical, TR-FRET, GST-Vif 1-94, biotin-A3G peptide, dose response retest, primary screen (AID 1117319); TR-FRET GST-Vif / biotin-A3G peptide binding; higher % means a stronger effect; test concentration not given here; strong numbers were not always called active; 260,000 compounds, 0.57% hits; inhibition, %, or IC50 in µM where a hit was titrated;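 active = above the screen mean plus three standard deviations and confirmed in dose response; inconclusive = results disagree or hit not tested in dose response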;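 note: Vif residues 1-94 fused to GST binding biotinylated APOBEC3G peptide 110-148; 0% = full assay without inhibitor and 100% = GST in place of GST-Vif; retest series ran down from 100 µM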
MLL AF4-AF9 inh: inhibitors of human MLL-AF4/AF9 interaction | P42568 | AlphaScreen, biotin-AF4 peptide binding to FLAG-AF9 | inhibition, % at 10 µM | 350,000 compounds, 0.47% hits;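 active = every replicate reaching a set inhibition limit, whatever the replicate mean, cut at about 25% in these data; inconclusive = mean inhibition reaches that limit but some replicates miss it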;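 note: 0% = plate neutral control median and 100% = total signal loss; the record names both 10 and 1 µM as test concentration; the first replicate is given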
rRNA inh HTS OD600: also measured in rRNA inh HTS; calls as there; OD600 change, %; measured here: OD600 growth;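 optical density of the mix in the first replicate; 0 = DMSO median and -100 = no signal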
rRNA inh HTS RFP: also measured in rRNA inh HTS; calls as there; RFP signal change, %; measured here: RFP humanized mutant strains;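 first replicate; 0 = DMSO median and -100 = no signal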
Numbers without * were called inactive; i = inactive; u = inconclusive; x = no result given; & = joins results of further samples.

The opening nine records, ahead of the listing:
SMILES	ALR H2O2 inh	E coli growth	HNF4A DNA FP	rRNA inh HTS	rRNA inh HTS OD600	rRNA inh HTS RFP	FGF22 binding	Vif TR-FRET	MLL AF4-AF9 inh
CN(C)NC(=S)NC1(C)CCS(=O)(=O)C1 (centres undefined)	x	0.69	1.4	14	-6	1.4	i	-6%	1.0
COc1ccc(Cc2nc3ccc(C(=O)N4CCC(N(C)C)C4)cc3o2)cc1 (centres undefined)	-15	0.73	0.3	14	17	4.1	i	x	-0.4
NS(=O)(=O)c1ccc(NC(=O)COC(=O)c2ccc(Cl)nc2)cc1	0	0.68	0.5	10	11	-0.4	i	12%	-3.3
CSC1=N/C(=C\c2cccc(Cl)c2)C(=O)N1N(C)C	-3	0.68	0.4	-2	0	-2.9	i	x	7.7
C=CCNc1oc(-c2cccs2)nc1S(=O)(=O)c1ccccc1	4	0.71	-0.6	-1	-5	1.3	i	-1%	1.8
COc1ccc(CNC(=O)C(C)NCc2ccccc2Cl)cc1 (centres undefined)	x	0.67	3.4	3	6	1.4	i	0%	-8.0
C[C@@H]1CN([C@H](C)CO)C(=O)c2cccc(NS(=O)(=O)c3cccs3)c2O[C@@H]1CN(C)Cc1ccccc1	x	x	x	3	13	1.0	i	x	0.7
C[C@@H]1CN([C@@H](C)CO)C(=O)c2cc(C#CCN(C)C)cnc2O[C@@H]1CN(C)C(=O)c1cccnc1	x	x	x	0	1	-3.1	i	x	-6.4
c1ccc(-n2ncc3c(NCCN4CCCCC4)ncnc32)cc1	-5	0.74	-1.1	x	x	x	x	13%	x

All compounds of this part (from the top)
SMILES	ALR H2O2 inh	E coli growth	HNF4A DNA FP	rRNA inh HTS	rRNA inh HTS OD600	rRNA inh HTS RFP	FGF22 binding	Vif TR-FRET	MLL AF4-AF9 inh
CN(C)NC(=S)NC1(C)CCS(=O)(=O)C1 (centres undefined)	x	0.69	1.4	14	-6	1.4	i	-6%	1.0
COc1ccc(Cc2nc3ccc(C(=O)N4CCC(N(C)C)C4)cc3o2)cc1 (centres undefined)	-15	0.73	0.3	14	17	4.1	i	x	-0.4
NS(=O)(=O)c1ccc(NC(=O)COC(=O)c2ccc(Cl)nc2)cc1	0	0.68	0.5	10	11	-0.4	i	12%	-3.3
CSC1=N/C(=C\c2cccc(Cl)c2)C(=O)N1N(C)C	-3	0.68	0.4	-2	0	-2.9	i	x	7.7
C=CCNc1oc(-c2cccs2)nc1S(=O)(=O)c1ccccc1	4	0.71	-0.6	-1	-5	1.3	i	-1%	1.8
COc1ccc(CNC(=O)C(C)NCc2ccccc2Cl)cc1 (centres undefined)	x	0.67	3.4	3	6	1.4	i	0%	-8.0
C[C@@H]1CN([C@H](C)CO)C(=O)c2cccc(NS(=O)(=O)c3cccs3)c2O[C@@H]1CN(C)Cc1ccccc1	x	x	x	3	13	1.0	i	x	0.7
C[C@@H]1CN([C@@H](C)CO)C(=O)c2cc(C#CCN(C)C)cnc2O[C@@H]1CN(C)C(=O)c1cccnc1	x	x	x	0	1	-3.1	i	x	-6.4
c1ccc(-n2ncc3c(NCCN4CCCCC4)ncnc32)cc1	-5	0.74	-1.1	x	x	x	x	13%	x
C[C@H](CO)N1C[C@H](C)[C@H](CN(C)S(C)(=O)=O)Oc2cc(C#CCN(C)C)ccc2S1(=O)=O	x	x	x	3	12	-4.6	i	x	-0.8
COc1ccc2c(c1OC)C(=O)N(c1ccccn1)C2	-13	0.75	0.2	x	x	x	x	-8%	x
COc1ccc(NC(=O)CSc2nnc(NC(C)=O)s2)c([N+](=O)[O-])c1	-10	0.7	-1.6	19	10	0.4	i	2%	-1.5
C[C@H](CO)N1C[C@H](C)[C@@H](CN(C)C(=O)C2CC2)Oc2ncc(-c3ccc(C(=O)N(C)C)cc3)cc2C1=O	x	x	x	2	14	-1.2	i	x	-3.3
CCCc1nc2sc3c(c2c(=O)n1N)CCC3	1	0.69	-1.2	x	x	x	x	-5%	x
O=C(O)C(NS(=O)(=O)c1ccccc1)C(O)c1ccccc1 (centres undefined)	x	x	5.6	3	13	-0.6	i	x	-0.7
Cc1ccc(S(=O)(=O)NN=C2CCC(C(C)(C)C)CC2)cc1[N+](=O)[O-] (centres undefined)	6	0.73	-4.4	x	x	x	x	x	x
CC1=NCCN1S(=O)(=O)c1ccccc1[N+](=O)[O-]	-26	0.69	3.5	1	8	3.2	i	-2%	0.5
COc1ccc2ccc(OC)c(/C=N/n3cnnc3)c2c1	-4	x	3.7	-18	-14	-3.1	i	x	-0.5
COC(=O)C(C)n1cnc2c(nnn2-c2ccccc2)c1=O (centres undefined)	-2	0.7	-2.1	x	x	x	x	x	x
COc1ccccc1/C=C1\S/C(=N/NC(=O)c2cccc(Br)c2)NC1=O	18	0.66	6.4	x	x	x	x	13%	x
CN1c2ccc(C#Cc3ccc(F)cc3)cc2[C@@H]2[C@@H](CCN2C(=O)CN2CCOCC2)[C@H]1CO	x	x	x	-2	-1	12	i	x	-3.3
Cc1c(CN2CCCC(C)C2)c(O)n(CCO)c(=O)c1C#N (centres undefined)	x	0.71	0.4	13	12	15	i	3%	3.1
Cc1ccc2c(c1)C(=C(C#N)C#N)C(=O)N2CCN1CCOCC1	2	0.67	-1.1	9	3	-1.2	i	4%	0.2
Oc1c(N=Nc2ccc(F)cc2)ccc2ccccc12	x	x	13	24	23	17	i	x	11
CN(C)S(=O)(=O)c1ccc(NC(=O)c2cc(F)c(F)cc2Cl)cc1	-2	0.68	-0.7	x	x	x	x	-7%	x
COc1ccccc1C(=O)NCC(=O)N(C)Cc1nc2ccccc2c(=O)[nH]1	x	x	0.9	5	4	0.4	i	5%	-1.6
CC(C)NC(=O)Nc1ccc2c(c1)C(=O)N([C@H](C)CO)C[C@H](C)[C@@H](CN(C)C(=O)c1ccncc1)OCCCC[C@H](C)O2	x	x	x	1	5	-1.8	i	x	-0.6
COC(=O)C(C)Oc1ccc(Cc2ncc(C(F)(F)F)cc2Cl)cc1 (centres undefined)	-6	0.66	1.2	7	6	0.4	i	-2%	-2.4
Cc1ccc(C)c(-c2nnc(OCC(=O)Nc3cc(C)on3)c3ccccc23)c1	-20	0.74	-1.4	x	x	x	x	1%	x
O=C(NC1CCCCC1)C(c1ccc(F)cc1)N(C(=O)c1csnn1)C1CC1 (centres undefined)	-1	0.67	-2.6	7	9	-0.1	i	x	-8.3
Cc1ccccc1-c1ccc([C@@H]2[C@H](CO)N3CCCCN(C(=O)Nc4cccc(F)c4)C[C@@H]23)cc1	x	x	x	-60	-77	-12	i	x	9.0
C[C@@H]1CN([C@@H](C)CO)C(=O)c2cc(/C=C/c3ccccc3)cnc2O[C@@H]1CN(C)C(=O)CN(C)C	x	x	x	3	4	2.3	i	x	5.2
CC1=C(C(=O)OCc2ccccc2)C(c2cccc([N+](=O)[O-])c2)NC(=O)N1 (centres undefined)	-3	0.71	-2.3	12	11	0.9	i	x	1.9
COc1ccc2c3c(n(C)c2c1)[C@@H](CO)NCC31CCN(Cc2ccc(-c3ccccn3)cc2)CC1	x	x	x	-5	0	2.0	i	x	u
Cc1c(Cl)c([N+](=O)[O-])nn1CC(=O)N1CCc2ccccc2C1	-38	0.74	-0.7	x	x	x	x	0%	x
COc1ccc(C2C(C#N)=C(N)Oc3n[nH]c(-c4ccccn4)c32)c(OC)c1OC (centres undefined)	3	0.74	-0.8	x	x	x	x	-4%&2%	x
Cc1sc(NC(=O)CN2CCCC2)nc1-c1ccc2c(c1)CCN2C(=O)c1cccc(F)c1	u	0.65	6.3	-9	-33	2.3	i	x	15
O=C(Nc1ccccc1)Nc1ccc(-n2ccc(C(F)(F)F)n2)cc1	1	0.65	-0.4	10	3	-2.1	i	-7%	-5.8
CCN(CC(=O)Nc1cccc(F)c1)CC(=O)Nc1ccc2c(c1)OCCO2	x	x	-0.8	6	12	-0.2	i	x	-6.0
COc1ccc(NC(=O)N2CCCc3ccccc32)cc1OC	-8	0.7	0.1	4	0	5.7	i	-3%	1.7
O=C(NCc1ccc2c(c1)OCO2)[C@@H]1[C@@H](CO)[C@@H]2Cn3c(cccc3=O)[C@H]1N2Cc1ccncc1	x	x	x	2	6	-0.1	i	x	-2.3
CCOC(=O)N1CCC(=NNc2nc3ccccc3s2)CC1	-1	0.67	2.4	-7	4	7.8	i	-3%	2.1
C[C@@H]1CCCCO[C@H](CN(C)C(=O)Nc2ccc(F)cc2)[C@H](C)CN([C@@H](C)CO)C(=O)c2cc(NC(=O)Nc3ccc4c(c3)OCO4)ccc2O1	x	x	x	3	6	-2.1	i	x	1.3
COc1nc(NCc2cccnc2)nc(NC2CCCCC2)n1	2	0.69	4.2	-6	-3	-0.7	i	x	-1.8
COc1cccc(CN(C(=O)c2ccccc2Br)C2CCS(=O)(=O)C2)c1 (centres undefined)	-1	0.66	5.4	1	7	-2.0	i	x	-1.1
CN(CCc1cn[nH]c1)C(=O)CC1C(=O)NCCN1Cc1ccccc1C(F)(F)F (centres undefined)	-24	0.69	1.1	6	-1	5.0	i	9%	-6.1
O=C(CN1CCN(C(=O)c2ccco2)CC1)Nc1ccccc1	7	0.71	-4.5	1	0	-1.2	i	-1%	-4.3
Cc1cc(O)c2c(-c3ccccc3)cc(=O)oc2c1	7	0.69	0.3	x	x	x	x	25%	x
CCN(CC)S(=O)(=O)c1ccc(/C=C/C(=O)Nc2cccc(F)c2)cc1	-2	0.67	1.9	-17*	4.5*	5.8*	i	3%	7.3
COC(=O)C1C(=O)/C(=C(/C)N2CCCC2)C(=O)CC1(C)C (centres undefined)	14	0.69	0.4	x	x	x	x	-3%	x
CCCn1cc(S(=O)(=O)CC(=O)Nc2ccc(OC)cc2OC)c2ccccc21	-47	0.72	-0.3	x	x	x	x	4%	x
C[C@H]1CN([C@@H](C)CO)C(=O)CCCn2nncc2CO[C@H]1CN(C)S(=O)(=O)c1ccc(F)cc1	x	x	-1.8	8&0	13&-3	1.5&-0.2	i	4%	-3.8&-19&0.9
CCOc1ccc2ccccc2c1CNc1nnnn1C	-7	0.68	-3.0	x	x	x	i	1%	-0.6
COc1cccc(NC(=S)N(CCCN2CCC(C)CC2)Cc2cccs2)c1	-7	0.71	0.8	9	11	3.3	i	x	6.9
Nn1c(SCc2ccccc2)nnc1-c1ccco1	13	0.72	-0.3	6	11	0.7	i	3%	4.4
NS(=O)(=O)c1ccc(NC(=S)NCc2ccco2)cc1	0	0.68	0.8	9	10	0.0	x	-4%	-0.6
CCOC(=O)Cc1cc(=O)n2[nH]c(C)c(-c3ccccc3OC)c2n1	13	0.67	-3.6	3	0	-0.5	i	x	0.3
COc1ccc(CN(CC(=O)NC2CCCC2)C(=O)c2csnn2)cc1	-1	0.71	0.1	1	8	1.3	i	x	-1.4
NC(=O)NC(=O)C[n+]1cccc(/C=N/O)c1	-5	x	-1.7	2	4	-3.4	i	16%	-11
C=CCn1c2ccccc2c2nnc(SCC(=O)O)nc21	-3	0.66	0.4	-18	-18	-4.0	i	x	-6.2
CC(C)C[C@H](CO)N(Cc1ccccc1)S(=O)(=O)N(Cc1ccccc1)[C@@H](CO)CC(C)C	-2	x	-0.7	-3	-17	-4.6	i	x	-4.5
O=C(Nc1ccccc1)C1=C(N2CCOCC2)/C(=C/c2cccnc2)CC1	21	0.68	-0.6	x	x	x	x	-5%	x

An excerpt. The share of hits here may be higher or lower than overall.
